Screening data deposited in PubChem by Johns Hopkins Ion Channel Center.
KCNQ2 enhance: KCNQ2 (rat) channel potentiation; O88943; CHO-K1 KCNQ2, FluxOR thallium flux fluorescence; active compounds read high; B-score at 10 µM; 0.54% of 310,000 active;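 active means fluorescence ratio B-score at least 3 SD of library B-scores, with initial fluorescence B-score within 3 SD, cut at about 5.3 in these data; same plate scores as AID 2156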;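 further: B-score of peak minus minimum over baseline fluorescence ratio after K+ and Tl+ stimulus; positive B-score means potentiation of KCNQ2 with more thallium influx and brighter signal; only the inactives scoring about 0 or higher are listed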
Target sequence (O88943 whole entry, looked up): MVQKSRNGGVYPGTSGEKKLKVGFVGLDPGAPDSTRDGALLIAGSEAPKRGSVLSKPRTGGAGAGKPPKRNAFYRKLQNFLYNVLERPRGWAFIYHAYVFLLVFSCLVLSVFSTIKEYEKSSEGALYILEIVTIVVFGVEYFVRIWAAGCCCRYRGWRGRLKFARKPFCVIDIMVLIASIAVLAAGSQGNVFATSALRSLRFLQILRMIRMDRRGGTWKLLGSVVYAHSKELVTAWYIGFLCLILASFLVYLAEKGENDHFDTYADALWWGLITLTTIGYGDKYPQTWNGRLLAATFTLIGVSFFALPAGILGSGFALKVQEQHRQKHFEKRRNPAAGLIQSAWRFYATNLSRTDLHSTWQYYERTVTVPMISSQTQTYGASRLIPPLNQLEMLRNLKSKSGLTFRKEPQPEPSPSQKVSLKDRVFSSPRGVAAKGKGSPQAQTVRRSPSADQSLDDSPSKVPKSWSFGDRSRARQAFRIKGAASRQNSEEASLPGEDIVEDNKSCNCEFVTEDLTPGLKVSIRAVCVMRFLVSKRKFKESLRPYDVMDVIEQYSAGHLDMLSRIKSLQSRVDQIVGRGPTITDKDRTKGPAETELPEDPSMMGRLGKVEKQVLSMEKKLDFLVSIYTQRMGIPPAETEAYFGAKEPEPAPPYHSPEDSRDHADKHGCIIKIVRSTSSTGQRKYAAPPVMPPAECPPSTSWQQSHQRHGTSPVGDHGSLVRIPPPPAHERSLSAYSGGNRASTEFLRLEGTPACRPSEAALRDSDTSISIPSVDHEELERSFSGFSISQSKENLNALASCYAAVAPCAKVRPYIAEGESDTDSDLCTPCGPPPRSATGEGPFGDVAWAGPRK
KCNQ2 enhance baseline: also measured in KCNQ2 enhance; calls as there; B-score; compound at 10 µM; measured here: initial fluorescence intensity artifact check;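 brightness before thallium and not channel activity; 0 = typical well and far values either way flag optical interference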
Active calls of the source: *. This is a subset; rates above refer to the full screens.

molecule | KCNQ2 enhance | KCNQ2 enhance baseline
CCC(C)c1ccccc1NC(=O)C1CCCO1 (centres undefined) | 0.01 | 1.8
Cc1ccc(NS(=O)(=O)c2cc(C(=O)NCc3ccccn3)ccc2Cl)cc1C | 1.37 | -0.89
N#Cc1c(NC(=S)NC(=O)c2ccccc2)sc2c1CCCC2 | 0.36 | 1.34
COc1ccc(C(=O)Oc2ccc(C(=S)N3CCOCC3)cc2)cc1 | 1.05 | -0.54
CCn1c(=O)cc(OCC(=O)Nc2ccc3c(c2)OCCO3)c2ccccc21 | 1.31 | -0.38
COc1cccc(CC(=O)OCC(=O)NC2(C#N)CCCCC2)c1 | 1.09 | 1.38
CCn1c(CC(=O)Nc2ccccc2)nnc1SCC(=O)Nc1ccccc1C(=O)OC | 0.48 | -0.12
CCOC(=O)N1CCN(C(=O)CCCn2c(=O)[nH]c3ccccc3c2=O)CC1 | 0.01 | 1.16
Cc1ccc(SCCNCc2ccco2)cc1 | 1.54 | 0.76
Cc1cc2cc(CN(Cc3ccco3)C(=S)NCC3CCCO3)c(=O)[nH]c2cc1C (centres undefined) | 0.01 | -0.6
COc1cccc(SCc2noc(C(=O)NC(C)C)c2C(=O)O)c1 | 0.87 | -1.3
O=C(Nc1ccccc1)c1ccc(N2CCN(c3ccccc3)CC2)c(S(=O)(=O)N2CCOCC2)c1 | 0.01 | 0.93
COc1ccc(CNC(=O)C2CC(C)=C(C)CC2C(=O)O)cc1 (centres undefined) | 0.11 | 0
CCCc1nc2oc3c(Cl)ncnc3c2c2c1CCCC2 | 0.39 | 1.65
CC(C)C(O)C1CCN(Cc2nc(-c3cccs3)no2)CC1 (centres undefined) | 1.36 | -1.5
O=C(c1ccc(Cl)cc1Cl)N1CCC(c2nc3c(nnn3Cc3ccco3)c(=O)[nH]2)CC1 | 0.67 | -0.06
O=C(c1n[nH]c2ccccc12)N1CCOCC1 | 0.44 | 1.63
COc1ccc(NC(=O)Cc2coc3ccc4ccccc4c23)cc1S(=O)(=O)N1CCOCC1 | 0.67 | -0.06
CC1CCN(C(=O)c2cc3c(=O)n4ccccc4nc3s2)CC1 | 0.17 | -1.23
Cc1nc(-c2ccccc2)sc1C(=O)NN | 0.33 | -1.57
COc1ccc(Cn2nc(C)cc2C)cc1OC | 0.61 | 1.4
CC(C)CSc1nc2c(=O)[nH][nH]c(=O)c2n1Cc1ccccc1 | 0.63 | 0.67
O=C(COc1ccccc1)N1CCN=C1SCc1cccnc1 | 0.05 | 0.45
COc1ccc(C(=O)CSc2nnc(NC(=O)C3CC(=O)N(c4ccccc4C)C3)s2)cc1 (centres undefined) | 2.01 | -1.1
COc1ccccc1N1CCN(C(=O)CCc2ccc(S(=O)(=O)NCC(C)C)cc2)CC1 | 1.82 | -0.48
Cc1nc2ccc(S(=O)(=O)NC(C(=O)Nc3nccs3)C(C)C)cc2s1 (centres undefined) | 0.08 | 0.2
COc1cc(NC(=O)c2cc(-c3ccco3)on2)c(OC)cc1Cl | 0.68 | 0.27
OC1CCN(C(=S)Nc2ccc(Nc3ccccc3)cc2)CC1 | 0.46 | 0.43
Cc1cc(C)c2c(=O)[nH]cnc2n1 | 0.19 | -2.91
CN1CCN(c2nc3c(c(=O)[nH]c(=O)n3C)n2CC(N)=O)CC1 | 0.16 | 0.54
CC(=O)C1=C(C)Nc2ncnn2C1c1ccc(Br)cc1 (centres undefined) | 0.4 | -0.36
CCc1ccccc1Nc1nc2ccccc2n1CC | 0.47 | -0.97
CSCC(C)N1CCC(n2nccc2NC(=O)c2ccccc2C)CC1 (centres undefined) | 0.43 | -0.56
O=C1OCc2ccc(NC(=O)c3ccccc3C(=O)O)cc21 | 0.35 | 1.28
O=Cc1cn(CC(=O)Nc2ccc3c(c2)OCO3)c2ccccc12 | 0.27 | 0.02
O=C(Cc1ccc([N+](=O)[O-])cc1)N1CCN=C1SCc1ccccc1 | 1.4 | -1.7
COc1ccccc1CNC(=O)CN1C(=O)c2ccccc2S1(=O)=O | 0.14 | 1.69
CCOC(=O)c1cc(-c2cccc([N+](=O)[O-])c2)nc2[nH]c(=O)[nH]c(=O)c12 | 2.35 | 0.03
CCOC(=O)N1CCN(C(=O)CNC2CCCCCCC2)CC1 | 2.45 | 0.66
Cc1ccc(N2C(=O)C(Cl)=C(N3CCOCC3)C2=O)c(C)c1 | 1.14 | 0.08
CC1(C)C(=O)OC(c2cccs2)C2(CCCCC2)C1=O (centres undefined) | 0.24 | 0.62
CNC(=O)CN(CCc1ccccc1)S(=O)(=O)c1ccc(OC)cc1 | 0.03 | -0.35
C/C(N)=C(/C#N)C(=O)CSc1nc2ccccc2c(=O)n1-c1ccc(C)c(Cl)c1 | 0.14 | 0.01
O=C(O)CSc1ccc2nnc(-c3cccnc3)n2n1 | 1.32 | -0.71
Cc1cc(C)n(-c2ccc(NC(=O)C3CCN(Cc4ccc(C)o4)CC3)cc2)n1 | 0.87 | -0.12
O=C(NN=C1CCCC1)c1cc(-c2ccccc2)n[nH]1 | 3.15 | 1.32
Cc1ccc(NC(=O)CCC(=O)OCC(F)(F)C(F)F)cc1 | 0.57 | 0.44
CCOc1ccc(N2C(=O)/C(=C\c3ccccc3OC)S(=O)(=O)C2c2cccc([N+](=O)[O-])c2)cc1 (centres undefined) | 0.32 | 0.18
CCC(C)NS(=O)(=O)c1ccc(NC(=O)Cc2ccc(OC)cc2)cc1 (centres undefined) | 0.55 | -1.05
Oc1ccc(C2=CSC3=NCCN23)cc1O | 0.8 | -1.13
Cc1ccc(S(=O)(=O)NNC(=O)c2sccc2-n2cccc2)cc1 | 0.08 | 0.02
C=CCn1c(SCC(=O)Nc2ccc(NC(=O)c3ccco3)c(OC)c2)nnc1-c1ccncc1 | 0.47 | -0.16
O=C(COc1ccc(Cl)cc1)NCc1nnc(SCC(=O)NCc2ccc3c(c2)OCO3)o1 | 1.32 | 0.02
Cc1cccc2cc(CN(CCc3ccccc3)C(=O)N3CCOCC3)c3nnnn3c12 | 1.21 | 1.11
CC(=O)N1CCc2cc(N=NC3=C(O)CC(C)(C)CC3=O)ccc21 | 2.62 | -0.03
Cn1c(=O)c2c(-c3ccccc3)n(N3CCOCC3)cc2n(C)c1=O | 0.68 | -0.39
C=CCN1C(=O)CN=C1Nc1ccccc1 | 0.03 | -0.41
CCn1cc(C(=O)NCc2ccncc2)c(=O)c2cc(F)c(N3CCN(C(=O)c4ccco4)CC3)cc21 | 0.85 | -0.02
O=C(NNC(=O)c1cccs1)c1ccc(Cl)c(Cl)c1 | 1.08 | 0
Cc1ccc(NC(=O)CN2CCN(C)CC2)cc1Br | 0.94 | -1.01

Fetched by structure from the list above (4):
molecule | KCNQ2 enhance | KCNQ2 enhance baseline
N#Cc1c(NC(=S)NC(=O)c2ccccc2)sc2c1CCCC2 | 0.36 | 1.34
CCCc1nc2oc3c(Cl)ncnc3c2c2c1CCCC2 | 0.39 | 1.65
CCOC(=O)N1CCN(C(=O)CNC2CCCCCCC2)CC1 | 2.45 | 0.66
Cc1nc2ccc(S(=O)(=O)NC(C(=O)Nc3nccs3)C(C)C)cc2s1 (centres undefined) | 0.08 | 0.2

The list goes on:
molecule | KCNQ2 enhance | KCNQ2 enhance baseline
COc1ccc(CCNC(=O)C2CCCN(S(=O)(=O)c3ccc(F)cc3)C2)cc1 (centres undefined) | 1.32 | 0.44
CNc1nc(N)c([N+](=O)[O-])c(Nc2ccccc2OC)n1 | 0.8 | -1.04
O=C(CCn1nnc2ccccc21)N1CCC(O)(c2cccc(F)c2)CC1 | 0.41 | 0.88
CCOC(=O)C(C(=O)N(C)C)c1ncc(C(F)(F)F)cc1Cl (centres undefined) | 0.74 | 0.12
C/C(=N\NC(=O)C1COc2ccccc2O1)c1ccc(C)o1 (centres undefined) | 0.22 | 0.68
NC(=O)C1=C[C@H](c2csc3ccccc23)C[C@H](OCCCCO)O1 | 0.35 | 0.12
CCOc1ccccc1NC(=S)NCc1ccco1 | 0.13 | -0.08
CC(=O)NCCNC(=O)C1CCC(CNc2nc(=S)[nH]c3ccccc23)CC1 (centres undefined) | 0.09 | 1.02
CCOc1ccc(C2C(C#N)=C(N)N(c3sc4c(c3C#N)CCCC4)C3=C2C(=O)CCC3)cc1 (centres undefined) | 0.43 | -0.83
N#Cc1ccc(/C=C(\C(=O)C(=O)O)c2ccc3ccccc3n2)cc1 | 0.18 | 1.55
CC12CCCCC1NS(=O)(=O)OC2 (centres undefined) | 1.44 | 0.85
O=C(Nc1nc2cc3c(cc2s1)OCCO3)c1ccc(N2C(=O)CCC2=O)cc1 | 1.91 | 2.04
CNC(=O)/C(C#N)=C/c1ccc(-c2ccc(Cl)cc2)o1 | 0.05 | 0
Clc1ccc(-c2cnc3ccccc3n2)cc1 | 1.05 | -0.63
Cc1ccccc1S(=O)(=O)Cc1ccc(C(=O)NC2CCCCC2)o1 | 1.26 | -0.84
Cc1cc(C)n2nc(SCC(=O)Nc3ccc(F)cc3)nc2n1 | 1.18 | 0.01
Nn1c(SCC(=O)Nc2ccc3c(c2)OCO3)nnc1C1CCCCC1 | 0.3 | 0.43
COc1ccccc1C(=O)Nc1nnc(C)s1 | 1.69 | -0.29
CC(C)c1nnc(NC(=O)CS(=O)(=O)Cc2ccccc2)s1 | 0.02 | 0
CCOC(=O)C1CCN(S(=O)(=O)c2cnc[nH]2)CC1 | 0.1 | -0.05
Nc1c(NCCCN2CCOCC2)c2ccccc2oc1=O | 1.16 | 0.67
CC(C)COc1ccc(C(=O)OCCN2CCOCC2)cc1 | 1.76 | 0.05
Cc1nn(-c2ccccc2)c(C)c1NC(=O)COC(=O)c1cc(Br)ccc1O | 0.02 | -1.35
CCOC(=O)C1=NOC(CNc2ncc(C(F)(F)F)cc2Cl)C1 (centres undefined) | 1.96 | -1.2
COC(=O)c1ccc(NC(C)C(=O)OC)c([N+](=O)[O-])c1 (centres undefined) | 1.28 | 0.15
NS(=O)(=O)c1ccc(NC(=O)CN2C(=O)c3ccccc3C2=O)cc1 | 0.55 | 1.13
CC1CCN(C(=O)Nc2cccc(NC(=O)N3CCC(C)CC3)c2)CC1 | 1.82 | 0.55
COc1ccccc1N=C1SC(C(=O)Nc2ccc(F)cc2)CC(=O)N1C (centres undefined) | 0.51 | 0.27
CCOCCSc1nc2c(c(-c3cccs3)c1C#N)CC/C2=C/c1cccs1 | 0.65 | -0.51
O=c1c(C(c2ccc(Cl)cc2)c2c(O)nc3n(c2=O)CCCS3)c(O)nc2n1CCCS2 | 0.02 | -0.31
O=[N+]([O-])c1ccccc1Oc1ncccc1[N+](=O)[O-] | 0.44 | -1.25
Cc1ccc(NS(=O)(=O)c2ccc(C(=O)N3CCOCC3)cc2)cc1 | 0.79 | 0.2
COc1cccc(NS(=O)(=O)Cc2ccccc2)c1 | 1.16 | -0.52
CC(=O)c1cccc(NC(=O)C2CC(=O)N(CCc3ccccc3)C2)c1 (centres undefined) | 1.42 | -1.05
CC(NCCS(=O)(=O)c1ccc(Cl)cc1)c1cccc(Cl)c1 (centres undefined) | 0.87 | 2.41
C[C@H](NC(=O)c1[nH]cnc1C(=O)Nc1ccc(CNC(=O)OC(C)(C)C)cc1)C(=O)OCc1ccccc1 | 0.4 | -2.01
CC(=O)N1CCN(c2ccc(NC(=O)c3ccc4c(c3)OCCO4)cc2)CC1 | 1.48 | 0.69
CCc1noc(C)c1C(=O)Nc1ccc(F)c(F)c1 | 0.07 | 1.6
COCC1CCN(C(=O)c2oc3c(F)cccc3c2C)C1 (centres undefined) | 0.93 | 0.26
Cc1ccc(CNC(=O)CNC(=O)[C@@H]2Cc3ccccc3CN2)cc1 | 0.08 | 1.67
CC(C)N(Cc1c(O)ccc2c(=O)c(-c3ccc(Cl)cc3)coc12)C(C)C | 0.12 | -0.69
Cc1ccc2nc(N/N=C/c3ccco3)cc(C)c2c1 | 0.01 | -0.85
O=C(Nc1ccc(S(=O)(=O)N2CCCCCC2)cc1)C1CCCO1 (centres undefined) | 0.85 | 1.54
CCCCNC(=O)Nc1ccccc1Br | 0.25 | 0.05
CN(C(=O)c1cncc(Br)c1)C1C2CC3CC(C2)CC1C3 (centres undefined) | 0.42 | 0.08
O=C1C2C3C=CC(C2C(=O)N1c1nccs1)C1C(=O)N(c2nccs2)C(=O)C31 (centres undefined) | 0.4 | 0.09
CC(C)C[C@@H]1NC(=O)[C@H](Cc2ccc(O)cc2)NC(=O)[C@H](CCC(N)=O)NC(=O)c2cc([N+](=O)[O-])cc(I)c2NCC[C@@H](C(N)=O)NC1=O | 0.69 | -1.48
COC(=O)CN(c1cccc(C)c1)S(=O)(=O)c1ccccc1 | 0.3 | 0.27
CN(Cc1ccccc1)C(=S)Nc1cccnc1 | 0.03 | 0.24
CCOC(=O)C1=C(C)N=C2SCCC(=O)N2C1c1cc(Br)ccc1OC (centres undefined) | 1.45 | 4.45
Cc1ccc(C(=O)Nc2sc3c(c2C(=O)O)CCCCC3)o1 | 2.89 | 0.57
O=C(Nc1ccccc1)Nc1ccc(S(=O)(=O)N2CCCCC2)cc1 | 0.04 | -0.68
C/C(CC(=O)Nc1ccc(N(C)C)cc1)=N\NC(=O)c1ccccn1 | 0.46 | 0.27
COc1ccccc1NC(=O)COc1ccc(C(=O)OCC(=O)N(C(C)C)C(C)C)cc1OC | 1.69 | -0.44
O=C(NCc1ccccc1)c1cc(S(=O)(=O)N2CCC3(CC2)OCCO3)ccc1F | 0.73 | -0.66

6 entries out of the list above, arranged by the value under KCNQ2 enhance, lowest first:
molecule | KCNQ2 enhance | KCNQ2 enhance baseline
CN(C(=O)c1cncc(Br)c1)C1C2CC3CC(C2)CC1C3 (centres undefined) | 0.42 | 0.08
CC(NCCS(=O)(=O)c1ccc(Cl)cc1)c1cccc(Cl)c1 (centres undefined) | 0.87 | 2.41
COc1cccc(NS(=O)(=O)Cc2ccccc2)c1 | 1.16 | -0.52
CC(=O)c1cccc(NC(=O)C2CC(=O)N(CCc3ccccc3)C2)c1 (centres undefined) | 1.42 | -1.05
COc1ccccc1NC(=O)COc1ccc(C(=O)OCC(=O)N(C(C)C)C(C)C)cc1OC | 1.69 | -0.44
Cc1ccc(C(=O)Nc2sc3c(c2C(=O)O)CCCCC3)o1 | 2.89 | 0.57
